Screening data as filed in PubChem BioAssay.
Biofilm kill mix – mixture kills Candida albicans biofilm cells; C. albicans biofilm persisters + clotrimazole, fluorescence viability; primary screen in compound mixtures of four per well; inhibition, % at 7.6 µM; 120,000 tested, 0.02% active; AID 1242;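 active = inhibition above 30.3% in the primary screen of four-compound pools, then above 30% when the compound was retested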;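 also: compounds exposed to preformed 24 h biofilms for 48 h; the number belongs to the whole pool; some results filed as inactive read as strong as hits; inactives centre near 12; 0% = biofilm with clotrimazole alone and 100% = kill control; retested singly at about 60 µM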
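Assay system: C. albicans biofilms / Medium: RPMI/MOPS medium, pH 7.0 / Schedule: biofilm formation 24 h, compound exposure 48 h, 37 °C / Measured by: Alamar Blue fluorescence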
* = called active by the depositor; & = joins results of further samples. Some of the compounds tested (hit frequency here may not be typical).

SMILES | Biofilm kill mix
C[C@]12CCC(=O)C=C1CC[C@@H]1[C@@H]2CC[C@@]2(C)[C@H]1CC[C@]2(O)C(=O)CO | -7
Oc1ccc(/C=C/c2cc(O)cc(O)c2)cc1 | 15
CC[N+](C)(CC)CCOC(=O)C(O)(c1ccccc1)C1CCCCC1 (configuration not stated) | 11
O=C(c1ccc(F)cc1)C1CCN(CCn2c(=O)[nH]c3ccccc3c2=O)CC1 | 22
CC(COc1ccccc1)NC(C)C(O)c1ccc(O)cc1 (configuration not stated) | 6
c1ccc(CN(CC2=NCCN2)c2ccccc2)cc1 | 14&2
O=S(=O)(c1cccc2cnccc12)N1CCCNCC1 | 11
C1CCC(C(CC2CCCCN2)C2CCCCC2)CC1 (configuration not stated) | 22
NC(=O)c1cccc(-c2cc(Nc3ccc(OC(F)(F)F)cc3)ncn2)c1 | 19
Cc1nc2ccccn2c(=O)c1CCN1CCC(C(=O)c2ccc(F)cc2)CC1 | 7
COc1cc2c(c(OC)c1OC)-c1c(cc3c(c1OC)OCO3)[C@@H](OC(C)=O)[C@H](C)[C@H](C)C2 | 6
COc1ccc(/C=C/C(=O)Nc2ccccc2C(=O)O)cc1OC | 5
Cc1cc(-c2ccccc2)nnc1NCCN1CCOCC1 | 9
CN(C)CCOC(C)(c1ccccc1)c1ccccn1 (configuration not stated) | 8
CC1(C)Cc2c(sc(NC(=S)NC(=O)c3ccccc3)c2C(=O)O)CO1 | 4
OCCN1CCN(CCCN2c3ccccc3Sc3ccc(Cl)cc32)CC1 | 13
Cc1c(NC(=O)c2cccnc2)c(=O)n(-c2ccccc2)n1C | 18
O=C(CCNNC(=O)c1ccncc1)NCc1ccccc1 | -5
CCN(CC)CCNC(=O)c1cc(Cl)c(N)cc1OC | 8

Five successive entries from above, quoted:
SMILES | Biofilm kill mix
C[C@]12CCC(=O)C=C1CC[C@@H]1[C@@H]2CC[C@@]2(C)[C@H]1CC[C@]2(O)C(=O)CO | -7
Oc1ccc(/C=C/c2cc(O)cc(O)c2)cc1 | 15
CC[N+](C)(CC)CCOC(=O)C(O)(c1ccccc1)C1CCCCC1 (configuration not stated) | 11
O=C(c1ccc(F)cc1)C1CCN(CCn2c(=O)[nH]c3ccccc3c2=O)CC1 | 22
CC(COc1ccccc1)NC(C)C(O)c1ccc(O)cc1 (configuration not stated) | 6

In the list so far, 3 contain an aryl methoxy group:
SMILES | Biofilm kill mix
COc1cc2c(c(OC)c1OC)-c1c(cc3c(c1OC)OCO3)[C@@H](OC(C)=O)[C@H](C)[C@H](C)C2 | 6
COc1ccc(/C=C/C(=O)Nc2ccccc2C(=O)O)cc1OC | 5
CCN(CC)CCNC(=O)c1cc(Cl)c(N)cc1OC | 8

Copied from the list.
CC[N+](C)(CC)CCOC(=O)C(O)(c1ccccc1)C1CCCCC1 (configuration not stated) in Biofilm kill mix is entered as 11
COc1cc2c(c(OC)c1OC)-c1c(cc3c(c1OC)OCO3)[C@@H](OC(C)=O)[C@H](C)[C@H](C)C2 in Biofilm kill mix is entered as 6
